hNpr1 antagonist: antagonists of human natriuretic peptide receptor Npr1; hit rate 1.6% among 76,000; HEK293 hNpr1 GloSensor cGMP, ANP-stimulated luminescence; Potency, µM (doses to about 46.3 µM), inactives show at the top dose activity change, negative = inhibition, hits mostly inhibitors; active = well fitted inhibition curve with a large enough effect; inconclusive = small, poorly fitted or top-dose-only effect; inactive = no such curve, though single readings can be large or run the other way;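 also: nearly all actives have a fitted effect of over 60% in size; nearly all hits also lower the signal before the agonist is added; a reference antagonist and vehicle were the controls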
Target sequence (P16066 whole entry, looked up): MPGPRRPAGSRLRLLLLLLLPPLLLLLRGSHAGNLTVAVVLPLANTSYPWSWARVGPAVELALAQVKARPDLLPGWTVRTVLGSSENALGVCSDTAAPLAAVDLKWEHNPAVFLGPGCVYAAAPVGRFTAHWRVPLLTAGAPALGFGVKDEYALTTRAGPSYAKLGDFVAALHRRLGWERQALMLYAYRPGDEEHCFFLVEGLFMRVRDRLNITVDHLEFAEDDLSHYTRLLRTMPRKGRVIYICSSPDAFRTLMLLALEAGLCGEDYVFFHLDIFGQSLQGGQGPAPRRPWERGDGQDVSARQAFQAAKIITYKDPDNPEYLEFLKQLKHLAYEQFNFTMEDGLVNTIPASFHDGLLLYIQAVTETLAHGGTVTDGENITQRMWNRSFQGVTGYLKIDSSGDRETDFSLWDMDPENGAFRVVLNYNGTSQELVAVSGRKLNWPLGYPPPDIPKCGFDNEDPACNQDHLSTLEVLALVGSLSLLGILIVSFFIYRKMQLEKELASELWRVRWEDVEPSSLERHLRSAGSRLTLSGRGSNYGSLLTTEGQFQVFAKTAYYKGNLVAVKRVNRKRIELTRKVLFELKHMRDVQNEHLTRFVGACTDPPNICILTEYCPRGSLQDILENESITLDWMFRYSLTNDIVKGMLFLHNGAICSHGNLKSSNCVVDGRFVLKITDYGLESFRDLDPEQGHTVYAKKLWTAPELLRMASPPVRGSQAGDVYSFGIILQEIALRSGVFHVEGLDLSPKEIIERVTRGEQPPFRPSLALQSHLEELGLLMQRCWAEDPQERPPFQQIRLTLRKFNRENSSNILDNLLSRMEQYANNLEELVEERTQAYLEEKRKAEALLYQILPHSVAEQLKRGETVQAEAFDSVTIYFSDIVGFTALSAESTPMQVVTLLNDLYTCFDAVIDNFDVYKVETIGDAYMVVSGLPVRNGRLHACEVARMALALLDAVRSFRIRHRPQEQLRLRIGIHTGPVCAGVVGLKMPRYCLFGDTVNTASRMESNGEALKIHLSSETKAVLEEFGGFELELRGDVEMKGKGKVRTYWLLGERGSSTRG
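Compound pre-incubated 30 min at room temperature on GloSensor-loaded HEK293 cells stably carrying hNpr1 and the pGS-40F cGMP biosensor. Stimulation uses hNppA at 0.1 nM final; luminescence is taken at baseline and 20 min post-agonist.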
Numbers without * were called inactive; ? = inconclusive; [ ] = dose if it differs, or a comment. % is scaled to controls: 0 for no effect and ±100 for the full control effect; potency is read from the fitted curve at half-maximal effect. The list is partial. The share of hits here may be higher or lower than overall.

smiles | hNpr1 antagonist
COCCN(C)C[C@@H]1CN(C(=O)c2cccc3c(C)c(C)[nH]c23)C[C@@H]1CO | 5.5%
Cn1cccc1C(=O)N1CC(F)(F)C[C@H]1c1nnc(C2CC2)o1 | 12.2%
O=C(NCc1ccccc1)c1ccccc1OC1CN(Cc2ccc(O)c(F)c2)C1 | -9.4%
COc1ccc(CCNC(=O)Cn2ccn3nc(-c4ccc(F)cc4)c(CO)c3c2=O)cc1OC | 2.8%
Cc1cc(C)n(-c2ccc(F)cc2CN2CCC3(CC2)COC(=O)O3)n1 | 12.1%
O=C(C1CC1)N1CCCCCCn2c(nnc2-c2ccc(F)cc2)CC1 | 2.4%
CSCCC(=O)N1CCC2(CC1)CC(c1ccccc1)C(=O)N2C (stereo unspecified) | 6.7%
O=C1CCN(S(=O)(=O)c2ccccc2)CCCC(C(=O)NCc2cc(F)cc(F)c2)CCN1 (stereo unspecified) | 1.5%
CN1c2cc(C(=O)N3CCN(C4CCCCC4)CC3)ccc2C(=O)N2CCCCC21 (stereo unspecified) | 2.1%
CC(C)N1C(=O)C2(CCCC2)C1C(=O)Nc1ccncc1 (stereo unspecified) | -0.8%
COc1ccc(C(=O)NC2CCCN(c3cc(-c4ccccc4)[nH]n3)C2)cc1OC (stereo unspecified) | -9.7%
COc1ccc(CN2C(=O)COC[C@@H]2[C@H](O)c2ccc(NC(=O)CC(C)(C)C)cc2)cc1 | -1.0%

Ordered by value in hNpr1 antagonist (low to high): four from the list above
structure	hNpr1 antagonist
COc1ccc(C(=O)NC2CCCN(c3cc(-c4ccccc4)[nH]n3)C2)cc1OC (stereo unspecified)	-9.7%
COc1ccc(CCNC(=O)Cn2ccn3nc(-c4ccc(F)cc4)c(CO)c3c2=O)cc1OC	2.8%
Cc1cc(C)n(-c2ccc(F)cc2CN2CCC3(CC2)COC(=O)O3)n1	12.1%
Cn1cccc1C(=O)N1CC(F)(F)C[C@H]1c1nnc(C2CC2)o1	12.2%

(cont.)
smiles | hNpr1 antagonist
CC(C)NC(=O)N1CCCC(c2nc(C(C)C)no2)CCNC(=O)CC1 (stereo unspecified) | 3.1%
Cc1nc2cc(C(=O)N3CC[C@@](C)(O)[C@@H](O)C3)ccc2s1 | 7.2%
CC(C)CNC(=O)N1CCc2nc(OCC3CC3)ccc2C1 | -25.5%
O=C(NCc1ccc(F)cc1)c1cnc2n1CCN(CCc1ccccc1)CC2 | -6.3%[70.6 µM]
Cc1cn2nc(C(=O)NC3CCc4ccccc43)cc2c(N2CCCC2)n1 (stereo unspecified) | -1.2%
CCn1nc(C)cc1S(=O)(=O)N[C@@H]1COCC[C@@H]1OCc1ccccc1 | -2.3%
O=C(c1ccn[nH]1)N1CCC(c2noc(COc3ccc(F)cc3)n2)C1 (stereo unspecified) | -24.2%
CCn1nccc1C(=O)N1CCC(N2C(=O)C3(CCCCC3)C2c2ccncc2)CC1 (stereo unspecified) | 3.9%
Cc1c(-c2ccccc2F)[nH]c2ccc(CNC(=O)CCC3=NNC(=O)CC3)cc12 | -2.2%
COc1ccc(-c2ccc3ncc(Nc4ccc(C(F)(F)F)cc4)n3n2)cn1 | -4.9%[70.6 µM]
O=C(c1cccc(OC2CN(CC3CC=CCC3)C2)c1)N1CCCC1 (stereo unspecified) | -5.7%
Cc1ncc(CN2CCC(N3CCC(C(=O)NCc4ccccn4)CC3)CC2)s1 | 6.0%
CCC(=O)N1CCN(c2nc3c(s2)CC(C(=O)O)CC3)CC1 (stereo unspecified) | 0.7%
COC[C@@H]1CN(C(=O)Cc2ccccc2Cl)C[C@H]1c1ccncc1 | -10.3%
Cc1cn2nnc(C(=O)N3CCC(C(=O)Nc4ccc(C)c(Cl)c4)CC3)c2c(=O)[nH]1 | 11.6%
CN1C(=O)CCC2(CNC(=O)Cc3ccccc3)CCC=C12 (stereo unspecified) | 6.7%
COC(=O)c1[nH]nc2c1C(c1ccc(OC)c(OC)c1Cl)CC(=O)N2 (stereo unspecified) | -1.2%
COc1ccccc1C(=O)N1CCC2(CC1)NC(=O)N(c1cccc(F)c1)N2 | -21.1%
Cc1ccc(-c2ccc3nnc(CNC(=O)Cc4ccc(Cl)cc4)n3n2)cc1 | -7.7%
Cn1nccc1C(O)c1cc2n(n1)CCN(S(=O)(=O)c1ccccc1)C2 (stereo unspecified) | 6.1%
COc1cccc(CNC(=O)CN2C(=O)C(c3ccccc3)=NC2(C)C)c1OC | 4.0%
O=C(Nc1ccc2c(N3CCCC3)ncnc2c1)c1cc(F)ccc1Cl | 0.4%
O=C(Nc1ccc(Cl)cc1)C1=NO[C@@H]2CN(c3ccccn3)C[C@H]12 | 2.6%[70.6 µM]
O=C1NCC2(CCCN(C(=O)CCc3nc4ccccc4[nH]c3=O)C2)O1 (stereo unspecified) | 5.2%
CCCNC(=O)N1CCOC[C@H](Oc2cccnc2)C1 | -12.8%[70.6 µM]
O=C1CCN(C(=O)c2cccs2)CCCCCCN1 | -12.6%
O=C([C@H]1C[C@@H](O)[C@H](O)[C@@H]2N=C(Nc3cccc(C(F)(F)F)c3)S[C@@H]21)N1CCOCC1 | -0.8%
COc1nc2nc(CCc3ccccc3)n(C)c2cc1Nc1ccncn1 | -4.4%[70.6 µM]
COc1ccc(-n2c(=O)[nH]c3cccnc32)cc1OC | 18.5%[70.6 µM]
O=C(c1cccs1)N1CCC(Cc2nc(C3CC3)n[nH]2)CC1 | -2.1%
CS(=O)(=O)c1ccc(OC[C@H]2C[C@@H](NC(=O)c3cncnc3)[C@H](O)[C@@H]2O)cc1 | -1.8%
Cn1c(CNC(=O)C2CCN(c3cn[nH]c(=O)c3)C2)nc2ccccc21 (stereo unspecified) | 6.7%
COc1ccc(-n2ccnc2CN2CCOC(c3cccnc3)C2)cc1 (stereo unspecified) | -19.0%
CCC(=O)Nc1ccc(-c2c(-c3ccc(F)cc3)nn(-c3ccc(F)cc3)c2OC(C)=O)cc1 | ?
Cc1noc(C)c1-c1cc2cc(C(C)C)oc2c(-c2cccc(CO)c2)n1 | -12.9%[70.6 µM]
O=C(O)c1ccc(CN2C[C@@H]3OCC(=O)N(c4ccccc4)[C@@H]3C2)cc1 | 2.2%[70.6 µM]
COc1ccccc1OCCNC(=O)c1ccc2c(c1)N(S(C)(=O)=O)CC2 | 3.0%
COCCn1ncc(N2CCC(NC(=O)COc3ccc(F)cc3)CC2)cc1=O | 2.7%
Cc1ccc(C2Cn3nnc(-c4noc(C5(c6ccccc6)CC5)n4)c3CO2)cc1 (stereo unspecified) | -0.7%
COc1ccc(-c2ccc3nnc(CNC(=O)c4cc(Cl)ccc4F)n3n2)cc1 | 4.8%
CCc1noc([C@@H]2CC(F)(F)CN2C(=O)C2CCOCC2)n1 | -0.3%
Cc1sc2cc(C(=O)NC(C)C)[nH]c2c1CN1CCCCC1 | -3.0%
CCC(CC)N1CCN(C(=O)c2ccc3c(c2)N(S(C)(=O)=O)CC3)CC1 | 6.3%
COc1ccccc1-c1ccnc(-c2nnc(C)n2-c2ccccc2)c1 | -4.1%[70.6 µM]
c1cncc(-c2cc(-c3ccc4cn[nH]c4c3)cn3cncc23)c1 | -11.6%[70.6 µM]
COc1ccc(CN2C(=O)COC[C@H]2C(=O)NCC2CC2)c(OC)c1 | 3.9%
CCOCCCNC(=O)N1CCOc2ccc(CN(CC)CC)cc2C1 | 6.5%
CNC(=O)[C@@H]1C[C@H](Oc2ccccc2)CN1C(=O)CCc1c[nH]c2ccccc12 | 5.1%
CCCNC(=O)C1c2ccccc2C(=O)N(C2CCCCC2)C12CCCCC2 (stereo unspecified) | 1.5%
O=C(c1ccc2nc[nH]c2c1)N1CCCN(c2cc(-c3ccc(Br)cc3)[nH]n2)CC1 | -16.7%
Cc1[nH]c2c(c1C(=O)NC1CC(c3nnc(CN(C)C)n3C)C1)C(=O)CCC2 (stereo unspecified) | -6.0%
CCn1cc(CN2CCC(N3C(=O)[C@H](OCCOC)[C@@H]3c3ccncc3)CC2)cn1 | -0.3%
CCS(=O)(=O)N1CC(F)(F)C[C@H]1c1nc(CCOC)no1 | 4.5%
Cc1cccc(C(=O)N2C[C@@H](CO)[C@H](N(C)C)C2)n1 | 0.7%
Cc1cc(C[C@@H]2COC[C@@H]2NC(=O)c2cc3cc(F)ccc3n2C)on1 | 1.0%
O=C(NCCc1ccccc1)N1CCCC(c2nc(CCOc3ccc(F)cc3)no2)C1 (stereo unspecified) | ?
O=C(Cn1ccn2nc(-c3ccc(F)cc3)c(CO)c2c1=O)Nc1ccc(F)cc1F | -2.0%
c1ccc(-n2cc(CN(Cc3ccccn3)CC3CCCO3)nn2)cc1 (stereo unspecified) | -2.4%
CC(C)c1cccc(NC(=O)c2cc3n(n2)CC(c2ccc4c(c2)OCO4)OC3)c1 (stereo unspecified) | -15.7%
Cc1cccnc1CN1CCN(c2ncncn2)CC1 | 3.6%

New compounds follow
smiles | hNpr1 antagonist
O=S(=O)(c1ccccc1)N1CCCC(Cc2noc(-c3cccnc3)n2)C1 (stereo unspecified) | -2.8%
COc1ccc(C2Cn3cnc(-c4nc(-c5ccc(OC)cc5OC)no4)c3CO2)cc1 (stereo unspecified) | ?
COC(=O)CNC(=O)N1CCC(N2C(=O)C(OCC3CC3)C23CCCCC3)CC1 (stereo unspecified) | -7.4%
Cc1cc(C)cc(N2CCN(c3cc(C4CC(O)C4)ncn3)CC2=O)c1 (stereo unspecified) | 1.9%
Fc1ccc(CCNc2nccc(-c3cccnc3)n2)cc1 | 3.1%
COc1ccccc1NC(=O)N1CC[C@H]2CC(=O)N(CCc3cnc[nH]3)CC[C@H]2C1 | 1.9%[70.6 µM]
COCCCNc1cc(Cl)nc2ccnn12 | 34.0%[activator][70.6 µM]
COc1ccc(CNC(=O)C2CCN(C(=O)c3ncn4c3COC(c3ccccc3)C4)CC2)cc1 (stereo unspecified) | -15.1%
O=c1cc(-c2ccncc2)oc2c(-c3cccc(O)c3)nccc12 | 3.1%[70.6 µM]
CCn1cc(C(=O)N2C[C@@H](COC)[C@H](c3nc(C4CC4)no3)C2)cn1 | 1.6%
Cn1cnnc1-c1nn(C)c2c1CN(C(=O)CCC(=O)N1CC(=O)Nc3ccccc31)CC2 | 8.9%
COCc1c(C(=O)N2CC(F)(F)C[C@H]2c2nc(C)no2)noc1C | 2.1%
CS(=O)(=O)N1C[C@@H](COc2cccnc2)[C@H](c2ccccn2)C1 | 0.7%
Brc1ccc(-c2ccnc3nc(-c4cccs4)nn23)cc1 | -2.4%
CCOC(=O)CNC(=O)CCc1conc1-c1ccc(OC)cc1 | -6.6%
O=C1COCC2(CN1Cc1ccccc1)CN(C(=O)C1(c3ccccc3)CC1)C2 | 5.5%[70.6 µM]
CCc1noc(-c2nc(-c3ccc(F)c(Br)c3)no2)n1 | -14.6%
COc1ccc(-c2nc(C)nc3c2CCN(C(=O)c2ccc(C)cc2)CC3)cc1 | -14.1%
O=C(NC1CCN(c2cc(-c3ccccc3)[nH]n2)C1)c1cccc(F)c1 (stereo unspecified) | 3.5%
CC(C)CCNC(=O)c1cnc2n1CCN(Cc1cccc(C#N)c1)CC2 | -9.8%[70.6 µM]
CC(C)CCNC(=O)N1CCC(Oc2ncccc2C(=O)N(C)C)C1 (stereo unspecified) | 6.0%
O=C(NCCN1CCOCC1)C1CCCN(C2CCN(Cc3ccncc3)CC2)C1 (stereo unspecified) | 6.3%
COC[C@H]1CCCN1Cc1nc(C2(O)CCN(Cc3ccc(C(F)(F)F)cc3)CC2)cs1 | ?
COc1ccc(CNC(=O)[C@@]23CCCC[C@H]2N(CCC(C)C)C(=O)CC3)cc1OC | -0.7%
COc1ccc(-c2nc(C)nc3c2CCN([S+](=O)([O-])c2ccccc2)CC3)cc1 | 6.2%
O=C(Nc1ccc(-c2nnc3n2CCCC3)cc1)c1ccc(F)cc1 | 3.0%
CCc1ccccc1NC(=O)Cn1ccn2nc(-c3ccc(F)cc3)c(CO)c2c1=O | 0.1%
Cc1ccc2c(c1)N1C(=O)OC[C@@H]1CCN(Cc1cccc(Cl)c1)C2 | 0.0%[70.6 µM]
O=C1NCCOCCN(C(=O)c2ccc3ccccc3n2)[C@H]2CCC[C@@H]12 | -2.2%
Cc1ccncc1C(=O)N1[C@@H]2CC[C@H]1CC(NC(=O)c1ccc(F)cc1)C2 (stereo partly specified) | 0.3%
Cc1ccnc(NC(=O)C2CC(=O)N(c3n[nH]c4ccccc34)C2)c1 (stereo unspecified) | 1.1%
CN(C)C[C@@H]1CN(Cc2ccccc2)C[C@H]1NC(=O)C1CCC1 | -1.0%
COc1ccc(CC2CCOC3(CCN(C(=O)CC(C)C)CC3)C2)cc1 (stereo unspecified) | ?
O=C(NC1CCCCCC1)c1ccc2nccn2c1 | -16.5%[70.6 µM]
CN1C(=O)CCCCC1C(=O)NCC1CCCCC1 (stereo unspecified) | 11.9%
O=C1CCCCN1CC(=O)N1CCCC(Nc2ccccc2)C1 (stereo unspecified) | -3.8%
O=C(N[C@@H]1CN[C@H](CO)C1)C1CC1 | 0.4%
COc1ccc(-n2nc(C3CCN(C(=O)c4ccc(C(F)(F)F)cc4)CC3)[nH]c2=O)cc1 | -24.6%
Cc1ccc(O[C@H]2CCOC[C@H]2NC(=O)C2CCS(=O)(=O)CC2)cn1 | -2.3%
CCNC(=O)N1CC(Oc2ccccc2-c2nc(-c3cnccn3)no2)C1 | -7.2%
Cc1oc2c(c1C(=O)NCCCN1CCCC1=O)CN(Cc1cccc(F)c1)CC2 | 5.6%
CCCCN1C(=O)[C@@H]2C[C@@H](O)CN2C2(CN(Cc3ccncc3)C2)C1=O | 0.7%[70.6 µM]

From PubChem
